LANA-H2B inh = blocks KSHV LANA binding to histone H2A/H2B. 320,000 compounds, 0.6% hits. Q9QR71. inhibition, % (no concentration beside the values). cell-free LANA-H2A/H2B peptide, fluorescence polarization; in the data active = inhibition mostly above about 10%, no sharp cut-off; inactive = mostly below about 6.7%;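 also: stock transfer was 7.5 nL into about 10 µL; 0% = median of vehicle wells and 100% = median of positive control wells; one replicate is shown; the record names a cut of 25% in any replicate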
RanGTP-Impb inh = inhibitors of RanGTP-importin-beta interaction, primary screen, biochemical, FRET, CFP-Ran, YFP-importin-beta, homogeneous | cell-free CFP-Ran/YFP-importin-beta FRET ratio | inhibition, % (test concentration not listed) | 300,000 compounds, 1.1% hits | AID 2216;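 active = most replicates above 15%; inconclusive = exactly half above 15%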;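 also: 0% = DMSO wells and 100% = Ran loaded with GDP instead of GTP; wells of about 40 µL received 100 nL stock; the first replicate is given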
ALR inh = blocks human ALR sulfhydryl oxidase activity. P55789. purified ALR, DTT oxidation, H2O2 HRP-luminol luminescence. inhibition, % (no concentration beside the values). 290,000 compounds, 3.8% hits. AID 485317;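 active = mean and each replicate at 75% or more; inconclusive = only one of the two met; inactive = neither met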;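 also: stock transfer was 7.5 nL into about 7.5 µL; 0% = neutral wells and 100% = wells with inactivated enzyme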
Target sequence (P55789 whole entry, looked up): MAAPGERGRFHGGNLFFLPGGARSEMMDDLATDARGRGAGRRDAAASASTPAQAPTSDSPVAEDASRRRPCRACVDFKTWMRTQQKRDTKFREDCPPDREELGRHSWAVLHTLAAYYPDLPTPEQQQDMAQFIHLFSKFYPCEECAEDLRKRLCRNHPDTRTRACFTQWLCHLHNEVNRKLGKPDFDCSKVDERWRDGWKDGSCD
B2AR ag = human beta-2 adrenergic receptor agonism by FAP; Am2.2-beta2AR cells, FAP receptor internalization, flow cytometry; reference of the scale not given here; response, % (test concentration not listed); 340,000 compounds, 0.43% hits; AID 504454;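 active = response above a set limit, near 3 SD of response in nonfluorescent compounds, cut at about 42% in these data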;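 also: stock transfer was 100 nL into about 11 µL; a reference agonist was the positive control; negative values mostly stem from fluorescent compounds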
Target sequence (P07550 whole entry, looked up): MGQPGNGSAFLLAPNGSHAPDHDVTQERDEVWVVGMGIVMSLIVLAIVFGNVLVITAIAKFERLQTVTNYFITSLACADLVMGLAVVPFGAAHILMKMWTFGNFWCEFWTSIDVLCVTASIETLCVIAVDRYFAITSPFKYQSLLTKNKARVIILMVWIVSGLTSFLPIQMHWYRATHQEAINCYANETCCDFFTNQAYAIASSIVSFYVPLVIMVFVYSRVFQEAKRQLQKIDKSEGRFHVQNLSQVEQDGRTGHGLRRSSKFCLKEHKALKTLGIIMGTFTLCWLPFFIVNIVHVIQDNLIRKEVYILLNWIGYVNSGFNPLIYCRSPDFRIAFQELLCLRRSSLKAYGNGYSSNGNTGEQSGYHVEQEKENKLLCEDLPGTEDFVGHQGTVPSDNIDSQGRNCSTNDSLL
Calb FLC = affects C. albicans growth with fluconazole. 300,000 compounds, 0.57% hits. AID 1979. growth inhibition, % (no concentration beside the values). C. albicans CaCi-2 (fluconazole-resistant clinical isolate) + fluconazole, Alamar Blue growth, 48 h;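 active = most replicates above 75%; inconclusive = exactly half above 75%; inactive = most below 75%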;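 also: all wells also contain fluconazole at 8 µg/ml as a sub-toxic cotreatment; 0% = median of DMSO wells and 100% = median of geldanamycin control wells; wells of about 8 µL received 7.5 nL stock; the first replicate is given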
HNF4A DNA FP = change in binding of human HNF4 alpha to DNA. HNF4a-FITC DNA binding, fluorescence polarization, 1 h. AID 1224865. P41235. 360,000 compounds, 0.3% hits. activity change, % at 10 µM; in the data active = activity change above about 30%, passing the limit was not always enough;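 also: controls were the assay level and a saturating level of protein; the project sought stronger binding though the title names inhibitors; some compounds called inactive have numbers as strong as hits; positive values seem to mean higher polarization but the record does not say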
Target sequence (P41235 whole entry, looked up): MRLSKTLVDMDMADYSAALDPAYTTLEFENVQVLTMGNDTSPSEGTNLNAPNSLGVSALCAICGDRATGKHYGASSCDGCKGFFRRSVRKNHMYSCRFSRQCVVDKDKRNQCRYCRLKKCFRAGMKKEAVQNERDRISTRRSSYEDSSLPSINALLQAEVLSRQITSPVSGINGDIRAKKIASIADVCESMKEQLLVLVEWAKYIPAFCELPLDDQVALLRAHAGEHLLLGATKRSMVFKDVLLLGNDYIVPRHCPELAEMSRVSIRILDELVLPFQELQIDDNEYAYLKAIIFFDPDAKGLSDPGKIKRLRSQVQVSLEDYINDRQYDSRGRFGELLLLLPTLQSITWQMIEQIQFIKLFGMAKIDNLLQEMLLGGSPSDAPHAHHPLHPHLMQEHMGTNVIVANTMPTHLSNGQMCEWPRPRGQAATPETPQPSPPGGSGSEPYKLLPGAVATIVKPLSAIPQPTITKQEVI
Vif TR-FRET = inhibitors of Vif binding to APOBEC3G peptide, primary screen, biochemical, TR-FRET, GST-Vif 1-94, biotin-A3G peptide, dose response retest (AID 1117319). one-dose inhibition, %; IC50 in µM for titrated hits. 260,000 compounds, 0.57% hits. TR-FRET GST-Vif / biotin-A3G peptide binding; higher % means a stronger effect; test concentration not given here; strong numbers were not always called active;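 active = above the screen mean plus three standard deviations and confirmed in dose response; inconclusive = results disagree or hit not tested in dose response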;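 also: Vif residues 1-94 fused to GST binding biotinylated APOBEC3G peptide 110-148; 0% = full assay without inhibitor and 100% = GST in place of GST-Vif; retest series ran down from 100 µM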
Numbers without * were called inactive; ? = inconclusive; · = not tested or not shown; & = joins results of further samples.

SMILES	LANA-H2B inh	RanGTP-Impb inh	ALR inh	B2AR ag	Calb FLC	HNF4A DNA FP	Vif TR-FRET
CC(c1ccncn1)N(C)Cc1nc(-c2ccc(C(F)(F)F)cc2)no1 (configuration not stated)	-3.6	-0.3	-3	-2	?	-2.3	?
O=C(NCC1CCCO1)C(c1ccc(F)cc1)N(CCCN1CCOCC1)C(=O)c1ccc(-c2ccccc2)[nH]1 (configuration not stated)	-2.7	-1.1	-15	·	?	·	16%
COCCNC(=O)/C(C#N)=C/c1ccccc1Br	-2.1	-4.9	65	4	2	2.3	-2%
CCCc1cc(-c2nc(N)ncc2-c2ccc3c(c2)OCCCO3)c(O)cc1OC	8.0	-4.4	0	13	-3	-7.7	4%
COc1ccc(-c2cc(-c3ccc(Br)cc3)nc3ncnn23)cc1OC	-12	-0.1	-6	-10	-3	0.5	-133%
Cn1c(=O)c2c(ncn2CC(=O)N/N=C/c2ccc(Br)s2)n(C)c1=O	-1.3	12	0	-4	9	-2.3	·
COc1ccc(NC(=O)COc2ccccc2)c(OC)c1	0.0	4.4	-4	2	5	2.9	3%
CC(C)C[C@H](NC(=O)C1CCC(CNC(=O)[C@@H]2CCCN2C(=O)OC(C)(C)C)CC1)C(=O)O (some centres not stated)	3.4	1.2	-1	-10	-6	-0.4	-6%
CCC(=O)Nc1sc(C(=O)Nc2ccccc2)c(C)c1C(=O)OC	-0.9	4.0	-4	0	-2	-3.2	0%
COC(=O)C1CN(C(=O)C(C)Oc2ccc(F)cc2)c2ccccc2O1 (configuration not stated)	-13	1.6	-4	15	-6	2.3	-2%
CC(C)c1ccc(N(C(=O)c2snc(C(N)=O)c2N)C(C(=O)NC2CCCC2)c2ccncc2)cc1 (configuration not stated)	0.0	-0.9	-4	-3	4	5.0	·
CC(C)(C)c1ccc(NC(=O)COC(=O)CCc2nc3ccccc3c(=O)[nH]2)cc1	4.4	-1.5	4	-81	-1	-1.4	1%
O=C(CSc1nc(C2CC2)nc2ccccc12)Nc1ccc2c(c1)OCCO2	1.4	-5.2	41	-21	-32	-0.8	5%
Cc1noc(C)c1S(=O)(=O)N(CC(=O)NCc1ccc(F)cc1)c1ccc(C(C)C)cc1	5.7	-5.3	3	-1	-9	4.5	2%
Cc1ccc(CNC(=O)CCS(=O)(=O)c2ccc(Br)s2)cc1	2.3	2.1	-5	0	?	-3.0	4%
COCc1cc(=O)n2[nH]cc(-c3ccsc3)c2n1	6.5	-2.1	99*	0	35	1.7	1%
Cc1ccc(NC(=O)c2cc([N+](=O)[O-])ccc2Cl)c(O)c1	-5.3	3.9	-7	-3	4	-12	9%
O=C(NC(Cc1ccccc1)C(=O)NCc1ccccn1)c1ccco1 (configuration not stated)	4.8	1.6	-2	-1	103*	-2.2	3%
COc1ccccc1-c1nnc2sc(-c3ccc(N(C)C)cc3)nn12	-4.3	1.5	7	12	31	2.5	·
CCCn1cnc2cc(NCc3ccccc3O)ccc21	-3.0	-1.5	99*	-4	3	2.0	-2%
Cc1cccc(NC(=O)Cc2coc3ccc4ccccc4c23)n1	0.5	0.4	-22	0	-12	2.7	3%
Cc1ccc(S(=O)(=O)N/N=C/c2ccc3nccnc3c2)cc1	4.1	-5.9	9	0	0	-1.7	2%
COC(=O)C1=C(C)Nc2ncnn2C1c1ccc(OC(=O)c2ccccc2)cc1 (configuration not stated)	-0.2	1.3	-1	-4	1	1.4	66%
O=C(CSc1nnc(-c2ccco2)o1)NC1CCCCCC1	-3.6	1.1	0	-2	-9	-0.1	-1%
COc1ccc(OC)c(/C=N/NC(=O)CNC(=O)c2cccc3ccccc23)c1	3.7	1.1	-4	8	-2	6.5	·
Cc1nc(SCCC(=O)O)c2cc(-c3ccccc3)sc2n1	5.2	1.4	·	-3	34	2.6	·
CCCc1nc2c(s1)CCc1onc(-c3ccc(OC)cc3)c1-2	-7.1	-5.9	-2	-3	1	-3.2	·
CC(=O)c1c(C(C)=O)c(C)n(NC(=O)c2ccccc2O)c1C	-2.9	4.9	-4	-4	-7	4.2	-2%
COC(=O)c1ccc(N=NN2CCOCC2)cc1	-2.8	-1.1	-5	0	-14	-2.1	-4%
CCOCCOC(=O)C1=C(C)NC(=O)NC1c1cc2c(cc1Br)OCO2 (configuration not stated)	-1.1	-2.2	1	-4	-10	-1.7	·
CCOC(=O)c1cc(-c2ccncc2)nc2c1c(C)nn2C	-2.1	1.4	-14	5	45	0.8	-1%
COc1ccc(OCC(=O)N/N=C/c2ccc(O[C@@H]3O[C@H](CO)[C@@H](O)[C@H](O)[C@H]3O)cc2)cc1	-1.1	-2.9	·	2	-9	0.4	25%
Cc1ccc(Cl)cc1N1CCN(C(=O)CN(C2CCCCC2)S(C)(=O)=O)CC1	3.1	3.5	-5	-3	0	0.3	-15%
O=C(O)C(Cc1ccccc1)N1C(=O)/C(=C/c2cccs2)SC1=S (configuration not stated)	·	·	·	-2	·	-1.8	24%
CC(C)C(NCC(=O)Nc1ccccc1C(=O)NC1CC1)c1ccccc1 (configuration not stated)	2.0	·	1	14	·	5.4	-8%
Cc1c([N+](=O)[O-])cc(S(=O)(=O)Nc2ccncc2)cc1[N+](=O)[O-]	3.5	7.1	-30	4	-20	-2.9	?

Records listed above that bear a hit mark in ALR inh:
compound,LANA-H2B inh,RanGTP-Impb inh,ALR inh,B2AR ag,HNF4A DNA FP,Vif TR-FRET
COCc1cc(=O)n2[nH]cc(-c3ccsc3)c2n1,6.5,-2.1,99*,0,1.7,1%
CCCn1cnc2cc(NCc3ccccc3O)ccc21,-3.0,-1.5,99*,-4,2.0,-2%

Further structures:
SMILES	LANA-H2B inh	RanGTP-Impb inh	ALR inh	B2AR ag	Calb FLC	HNF4A DNA FP	Vif TR-FRET
O=C(NC1CCCC1)C1CC(=O)N(c2ccccc2)C1 (configuration not stated)	-0.6	-0.2	-8	-1	-3	0.6	·
Clc1cccc(Cl)c1-c1noc(CN2CCOCC2)n1	7.4	-3.3	-2	-2	-4	-5.1	-7%
Cc1ccc(CN2C(=O)C(C)(C)Oc3ccc(C(=O)N4CCCCC4)cc32)cc1	10	-0.1	5	-4	-2	5.3	?
Nc1nonc1-n1nnc(C(=O)N/N=C/c2ccccc2Cl)c1CSc1ccccc1	-0.6	4.6	-5	0	-6	0.9	0%
O=C(O)c1cncc(Br)c1	-0.6	1.5	1	-9	-1	0.0	-6%
Cc1cc(-c2nc3ncccc3o2)ccc1NC(=S)NC(=O)c1ccco1	-0.2	·	-5	17	13	-2.8	0%
O=C(NC(=S)NCCC1=CCCCC1)c1ccc(Br)o1	2.3	10	4	-18	3	1.5	4%
Cn1c(=O)n(C)c2cc(/C=N/NC(=O)c3ccc(Cl)cc3)ccc21	-5.3	1.7	·	-2	19	2.4	-3%
O=C(C[n+]1cc(-c2ccccc2)n2c1CCC2)Nc1nc(-c2ccccc2)cs1	2.4	?	-10	-16	-37	3.8	·
O=C(CNCc1ccco1)Nc1ccc(Oc2ccccc2)cc1	2.6	-3.3	·	-6	-4	0.3	0%
CCCn1nc(C(=O)Nc2ccc(S(=O)(=O)Nc3nccs3)cc2)c2ccccc2c1=O	-6.8	-3.8	·	7	-1	0.1	0%
N#Cc1c(N)n(CCOC(=O)c2cccc(Br)c2)c2nc3ccccc3nc12	-2.8	?	2	-1	-2	4.1	-6%&5%
O=C(c1ccccc1NS(=O)(=O)c1cccc(C(F)(F)F)c1)N1CCc2ccccc21	-7.2	-5.8	-7	5	12	-0.3	0%
CCC1(O)CCCC2C3CCC4CC(=O)CCC4(C)C3C(=O)CC21C (configuration not stated)	·	·	·	-6	·	3.0	-2%
Cc1cc(C)n(-c2ccc(C(=O)Nc3cccc(S(=O)(=O)N4CCCC4)c3)cc2)n1	-3.1	-2.2	3	6	-8	-4.5	-5%
Cc1[nH]n(-c2cccc(Cl)c2)c(=O)c1C=NCc1ccco1	-2.9	?	4	7	-26	-4.9	-10%
N#C/C(=C/c1ccc(N2CCCCC2)o1)C(=O)Nc1ccc(Cl)cc1	-11	8.2	-1	-598	0	118	4%
Cc1cc(=O)[nH]c(SCC(=O)OCc2ccccc2)c1C#N	8.5	0.9	-25	-4	-2	1.6	1%
Cc1ccc(NC(=O)COc2coc(CN3CCc4ccccc43)cc2=O)cc1Cl	·	-2.1	·	-1	9	-5.3	-5%
CC1CCCCC1NC(=O)CCc1nc2sc3c(c2c(=O)[nH]1)CCCC3 (configuration not stated)	·	0.6	·	6	9	5.1	3%
O=C(Nc1ccc(C(=O)c2ccccc2)cc1)c1ccccc1	4.7	1.0	-3	15	-7	-0.8	-1%
c1csc(-c2nc(NCCCN3CCOCC3)c3ccccc3n2)c1	-5.7	-1.1	·	-14	1	-0.2	·
N#CC1=C2Nc3ccccc3N2C(=O)NC1(c1ccccc1)C(F)(F)F (configuration not stated)	2.2	-1.9	-3	-4	-1	-3.7	1%
C/C(Cn1cnc([N+](=O)[O-])n1)=N\NC(=O)c1cccc(F)c1	1.3	2.8	-23	0	-6	0.8	-4%
Cc1ccc(C(=O)NCc2ccco2)cc1S(=O)(=O)Nc1cccc(Cl)c1	0.5	0.6	-3	-2	113*	1.9	3%
Cc1nonc1NC(=O)CSc1ccccn1	-3.3	3.8	-6	1	17	-1.1	·
Cn1nc(CC(=O)NCc2ccc(F)cc2)c2ccccc2c1=O	1.4	-0.6	·	-11	-7	2.1	0%
Cc1ccc2[nH]c(=O)c(COC(=O)c3cccs3)cc2c1	-5.4	1.0	-4	-4	10	-0.6	-39%
CN(C)S(=O)(=O)c1ccc(C(=O)OCC(=O)N2CC3(C)CC2CC(C)(C)C3)cc1 (configuration not stated)	-0.8	·	2	-4	·	0.4	·
CC(C)C1=Nc2cccc3cccc(c23)N1	-1.7	-4.4	·	19	6	-0.2	-3%
Cc1ccc(/C(N)=N/OC(=O)c2ccc(Cl)cc2Cl)cc1	0.1	-5.7	-8	2	4	-2.2	-6%
CC(=O)Nc1ccc(C(=O)Cn2nnc3ccccc3c2=O)cc1	-0.4	2.4	-4	-8	0	2.3	0%
Cc1ccc(CCNC(=O)CCNS(=O)(=O)c2ccc3c(c2)c(=O)n(C)c(=O)n3C)cc1	-2.9	10	3	-2	-3	0.0	-10%&-2%
CC(=O)Nc1ccc(NC(=O)C2CCCN2C(=O)NCc2ccccc2)cc1 (configuration not stated)	-2.5	3.9	-17	3	-11	0.0	·
CC(=O)c1ccccc1NC(=O)COC(=O)c1c(C)nn(-c2ccccc2)c1C	5.8	·	-7	-2	·	4.3	·
Cc1ccc(S(=O)(=O)NNc2ccccc2)c(C)c1	7.6	·	100*	1	·	-0.8	20%
COc1ccc([C@H]2CC(=O)C=C(c3ccc(OC)c(F)c3)C2)cc1	-7.2	·	1	2	·	-2.1	·
COc1cc(/C=C/c2[nH]c(=O)[nH]c(=O)c2[N+](=O)[O-])cc(OC)c1O	-2.3	0.3	95*	-4	-2	3.2	·
O=C(Nc1ccc(NC(=O)c2ccco2)c(Cl)c1)c1ccccc1	21*	4.7	-2	-1	7	1.8	·
CC(=O)Nc1ccc(S(=O)(=O)NCc2ccc(C)n2C)cc1	-1.4	-0.3	·	10	2	-0.5	·
OCCCNc1ncnc2c1[nH]c1ccccc12	-1.6	5.1	·	7	-5	1.7	70%
COc1cc(-c2cc3nc4ccccc4n3c(N)c2C#N)cc(OC)c1OC	-0.6	25*	-2	15	12	4.3	?
Cc1ccc(NC(=O)CC2C(=O)N(Cc3ccccc3)C(=S)N2NC(=O)c2cccc(F)c2)c(C)c1 (configuration not stated)	0.3	7.5	0	4	5	1.3	15%
Cc1cccc(NC(=O)NCc2ccc3c(c2)cc(C)n3C)c1	-5.3	-1.2	·	10	-14	-9.1	-21%

Compound activity: PubChem BioAssay, several laboratories
